# High-throughput results as filed in PubChem.
# Prx2 Sm inh – blocks S. mansoni peroxiredoxin 2 enzymatic activity; 65,000 compounds, 0.07% hits; S. mansoni Prx2 activity coupled to TGR/GSH (TGR is thioredoxin glutathione reductase), NADPH fluorescence loss, qHTS; some inactives read as strong as hits; Potency, µM; active means full or partial inhibition curve with a strong effect at the top dose; inconclusive means weaker partial or single-point curve; inactive means no accepted curve; note: series up to 57 µM; many of its hits are not listed in these tables
#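 Activity is read as the drop in NADPH fluorescence (365/450 nm), recorded every 30 sec for 8 min after H2O2 addition. Prx2 is coupled to TGR-driven NADPH oxidation through glutathione, in phosphate buffer pH 7.4.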
# Anthrax LT inh – inhibitors of anthrax lethal toxin internalization | Cells, anthrax lethal toxin internalization, FRET ratio (460/530) | Potency, µM (highest dose often 40 µM), without a hit: at the top dose activity change, negative = inhibition, hits mostly inhibitors | 70,000 compounds, 0.67% hits; active = well fitted falling ratio curve with the 530 nm signal flat; inconclusive = other ratio curves, or a change in one channel alone; inactive = flat curves in the ratio and both channels; the % refers to the ratio; note: % is set by controls: 0 for no effect and ±100 for the full control effect; nearly all actives have a fitted effect of over 50% in size; tested in ME-180 cells; beta-lactamase reporter
# Starred values were filed as active, the others as inactive; u = inconclusive; x = no result given; [ ] = another dose, or the depositor's remark. Potency is the fitted concentration of half-maximal effect. The list is partial, so the mix of outcomes need not match the whole.
cpd	structure	Prx2 Sm inh	Anthrax LT inh
1	COc1ccc(CCNC(=O)c2ccc(N3CCCC3=O)cc2)cc1OC	>57	-9%
2	CC1(C)CC(=O)C(C=NCCCn2ccnc2)=C(O)C1	u	u
3	CCn1c(=O)c2cc(C(=O)N3CCCC3)sc2c2ccccc21	>57	-10%
4	Cc1ccc(C)c2[nH]c(=O)c(CN(CC3CCCO3)C(=O)NC3CCCCC3)cc12 (configuration not stated)	>57	-4%
5	CCCNC(=O)OC[C@@H]1O[C@H](CCO/N=C\[C@@H](OC)[C@H](C)/C=C\CC(=O)OC)C=C[C@@H]1Oc1ccc(OC)cc1	x	1%[8 µM]
6	CC1CN(CCC(=O)Nc2ccc3c(c2)CCC3)CC(C)O1 (configuration not stated)	>57	0%
7	CCC(C(=O)NC1CCCC1)N(C(=O)c1snc(C(N)=O)c1N)c1ccc2c(c1)OCCO2 (configuration not stated)	>57	-7%
8	COc1cc2c(=O)nc3n(c2cc1OC)C(c1ccccc1)N=C(N)N3 (configuration not stated)	>57	1%
9	CCOC(=O)CCc1c(C)nc(SCC(=O)O)c(C#N)c1C	>57	8%
10	O=C(Nc1cccc(S(=O)(=O)C(F)F)c1)c1ccc(S(=O)(=O)N2CCOCC2)cc1	>57	2%
11	COc1ccc(CCNC(=O)c2cnn(-c3ccc(C)c(C)c3)c2NC(=O)c2ccco2)cc1OC	>57	4%
12	OC(c1ccccc1)(c1ccccc1)C1CCNCC1	>57	u
13	CCCCCn1c(CN2CCN(c3cccc(Cl)c3)CC2)nc2c1c(=O)[nH]c(=O)n2C	>57	u
14	O=C(NC1CCCc2ccccc21)c1cccnc1 (configuration not stated)	>57	-1%
15	CCCC[C@H]1C[C@@H]1[C@@H]1N(P(=O)(c2ccccc2)c2ccccc2)[C@](CO)(c2ccccc2)CC12CC2	>57	u
16	COc1cc2c3cc1Oc1c(OC)c(OC)cc4c1[C@@H](Cc1ccc(O)c(c1)Oc1ccc(cc1)C[C@@H]3N(C)CC2)CN(C)C4	>57	u
17	Cc1ccc(-c2nc(S(=O)(=O)c3ccc(F)cc3)c(SCC(=O)NCC3CCCO3)o2)cc1 (configuration not stated)	>57	12%
18	CN1C(=O)c2ccccc2Sc2ccc(C(=O)N3CCC4(CC3)OCCO4)cc21	>57	19%
19	Cc1cc(C)c(C)c(OCc2nc(-c3cccnc3)no2)c1	>57	-11%
20	O=C(NC1CCCCCC1)c1cc2n(n1)C(C(F)(F)F)CC(c1ccco1)N2 (configuration not stated)	>57	-1%
21	Cc1ccccc1-c1nnc2s/c(=C\c3ccc(N(C)C)cc3)c(=O)n12	>57	x
22	O=C(O)CSc1nc2c(c(=O)[nH]1)CCCC2	>57	-15%
23	Cc1cc(C)c(N2C(=NC(=O)CCCC(=O)O)SC3CS(=O)(=O)CC32)c(C)c1 (configuration not stated)	>57	-14%
24	O=C(O)NCc1ccccc1 (tested in a mixture with another compound)	>57	-1%[8 µM]
25	O=S(NCc1ccccc1)C12CC3CC(CC(C3)C1)C2 (configuration not stated)	>57	5%
26	COc1ccc(C2CC(c3ccccc3Cl)Nc3ncnn32)cc1OC (configuration not stated)	>57	-5%
27	CCS(=O)(=O)N1CCC(C(=O)N2CCC3(CC2)OCCO3)CC1	>57	9%
28	C#Cc1ccc(C(=O)Nc2cc(C(N)=O)ccc2N2CCOCC2)cc1	>57	14%
29	COc1ccc(N(CN2C(=O)c3ccccc3C2=O)C(=O)C(C)C)cc1	>57	3%
30	CCOC(=O)N1CCC(NC(=O)C2CCN(Cc3nc(-c4ccc(CC)cc4)oc3C)CC2)CC1	>57	-17%
31	Cc1cc(C)cc(OCc2ccc(C(=O)O)o2)c1	>57	-20%
32	Cc1nccn1-c1c2c(c(C#N)c3nc4ccccc4n13)CCC2	>57	-6%
33	Cc1ccc(Nc2nc(CSc3nnnn3-c3ccccc3)cc(=O)[nH]2)cc1	>57	-1%
34	CCN(CC)c1nc2ccccc2n2cnnc12	>57	-5%
35	COc1ccc(O)cc1	x	-4%
36	Nn1c(SCc2nc3ccccc3[nH]2)nnc1C1CCCCC1	x	2%
37	Cc1cc(C)nc(NS(=O)(=O)c2ccc(NC(=O)CCCN3C(=O)c4ccccc4C3=O)cc2)n1	x	-9%
38	CCCCOC(=O)Cn1c(=N)n(CCN2CCOCC2)c2ccccc21	>57	6%
39	O=C(Nc1ccc2c(c1)OCO2)C1CC(c2c(F)cccc2Cl)=NO1 (configuration not stated)	>57	0%
40	Cc1cc(C)cc(N(C(C)C(=O)N2CCCCC2)S(C)(=O)=O)c1 (configuration not stated)	>57	-13%
41	COCCn1c(=O)c(-c2cccs2)nc2cncnc21	>57	-5%
42	CN(Cc1nc2ccccc2n1C)S(=O)(=O)c1ccc(Cl)cc1	>57	-7%
43	CCCCNC(=O)CC1N=C2c3ccccc3N=C(SCC(=O)Nc3ccccc3C)N2C1=O (configuration not stated)	>57	15%
44	O=C(O)c1c2ccccc2cc2ccccc12	>57	-8%
45	CCCSc1nc2c(cnn2-c2ccccc2)c(=O)[nH]1	>57	22%
46	COc1cc(-c2nnc3n2N=C(c2ccccc2)CS3)cc(OC)c1OC	>57	10%
47	Cc1nc(N2CCN(Cc3ccccc3)CC2)nc2c1C(=O)CC(C)C2 (configuration not stated)	>57	u
48	FC(F)(F)c1ccccc1-c1cncnc1NCCN1CCOCC1	x	u
49	O=C(COC(=O)c1cccnc1Nc1cccc(C(F)(F)F)c1)NCCN1C(=O)CSC1=O	>57	u
50	Cc1cc(Cl)c(S(=O)(=O)NC2CCCCC2)cc1OCC(=O)Nc1nncs1	>57	-7%
51	Cc1ccc2nc3c(cc(C#N)c(=O)n3-c3nccs3)c(=O)n2c1	x	u
52	N#CC1=C(N)Oc2n[nH]c(-c3cccs3)c2C1c1cccnc1 (configuration not stated)	>57	-6%
53	O=C(c1cccc(F)c1)N1CCC2(CCCN(Cc3cc(C(F)(F)F)cc(C(F)(F)F)c3)C2)CC1	>57	u
54	CCN(CC)CCNC(=O)CCn1c(=S)[nH]c2cc3c(cc2c1=O)OCO3	>57	u
55	COc1ccc(-n2c(SC)nc(O)cc2=O)cc1	x	-11%
56	CCOc1cc(C)nc(N2CCN(C3CCCCC3)CC2)n1	>57	-12%

# New compounds follow.
cpd	structure	Prx2 Sm inh	Anthrax LT inh
57	O=c1c2[nH]c3ccc(F)cc3c2ncn1CCN1CCN(Cc2ccccc2)CC1	>57	-10%
58	COc1cccc(OC)c1C(=O)N1CCN(Cc2ccccc2C)CC1	x	3%
59	COc1ccc(CCCc2nnc(SCC(=O)Nc3cc(C)c(C)cc3Br)o2)cc1	>57	u
60	COc1ccc(-n2c(O)c(C=NC3CC3)c(=O)[nH]c2=O)cc1	>57	-4%
61	O=C(CSc1nnc(CNC(=O)c2cccs2)o1)c1ccccc1	>57	2%

# Structural class: those above with a carbonyl joined to an NH by a bond outside any ring
cpd	structure	Prx2 Sm inh	Anthrax LT inh
1	COc1ccc(CCNC(=O)c2ccc(N3CCCC3=O)cc2)cc1OC	>57	-9%
4	Cc1ccc(C)c2[nH]c(=O)c(CN(CC3CCCO3)C(=O)NC3CCCCC3)cc12 (configuration not stated)	>57	-4%
5	CCCNC(=O)OC[C@@H]1O[C@H](CCO/N=C\[C@@H](OC)[C@H](C)/C=C\CC(=O)OC)C=C[C@@H]1Oc1ccc(OC)cc1	x	1%[8 µM]
6	CC1CN(CCC(=O)Nc2ccc3c(c2)CCC3)CC(C)O1 (configuration not stated)	>57	0%
7	CCC(C(=O)NC1CCCC1)N(C(=O)c1snc(C(N)=O)c1N)c1ccc2c(c1)OCCO2 (configuration not stated)	>57	-7%
10	O=C(Nc1cccc(S(=O)(=O)C(F)F)c1)c1ccc(S(=O)(=O)N2CCOCC2)cc1	>57	2%
11	COc1ccc(CCNC(=O)c2cnn(-c3ccc(C)c(C)c3)c2NC(=O)c2ccco2)cc1OC	>57	4%
14	O=C(NC1CCCc2ccccc21)c1cccnc1 (configuration not stated)	>57	-1%
17	Cc1ccc(-c2nc(S(=O)(=O)c3ccc(F)cc3)c(SCC(=O)NCC3CCCO3)o2)cc1 (configuration not stated)	>57	12%
20	O=C(NC1CCCCCC1)c1cc2n(n1)C(C(F)(F)F)CC(c1ccco1)N2 (configuration not stated)	>57	-1%
24	O=C(O)NCc1ccccc1 (tested in a mixture with another compound)	>57	-1%[8 µM]
28	C#Cc1ccc(C(=O)Nc2cc(C(N)=O)ccc2N2CCOCC2)cc1	>57	14%
30	CCOC(=O)N1CCC(NC(=O)C2CCN(Cc3nc(-c4ccc(CC)cc4)oc3C)CC2)CC1	>57	-17%
37	Cc1cc(C)nc(NS(=O)(=O)c2ccc(NC(=O)CCCN3C(=O)c4ccccc4C3=O)cc2)n1	x	-9%
39	O=C(Nc1ccc2c(c1)OCO2)C1CC(c2c(F)cccc2Cl)=NO1 (configuration not stated)	>57	0%
43	CCCCNC(=O)CC1N=C2c3ccccc3N=C(SCC(=O)Nc3ccccc3C)N2C1=O (configuration not stated)	>57	15%
49	O=C(COC(=O)c1cccnc1Nc1cccc(C(F)(F)F)c1)NCCN1C(=O)CSC1=O	>57	u
50	Cc1cc(Cl)c(S(=O)(=O)NC2CCCCC2)cc1OCC(=O)Nc1nncs1	>57	-7%
54	CCN(CC)CCNC(=O)CCn1c(=S)[nH]c2cc3c(cc2c1=O)OCO3	>57	u
59	COc1ccc(CCCc2nnc(SCC(=O)Nc3cc(C)c(C)cc3Br)o2)cc1	>57	u
61	O=C(CSc1nnc(CNC(=O)c2cccs2)o1)c1ccccc1	>57	2%
